HSD17B inhib: blocks hydroxysteroid 17-beta dehydrogenase activity; Q99714; recombinant HSD17B10, NADH fluorescence kinetic; many of its hits are not listed in these tables; Potency, µM (titrated, usually from 57.1 µM), for inactives: top-dose activity change, negative = inhibition, actives largely listed as inhibitors; 75,000 compounds, 7.6% hits; AID 893; active = well fitted inhibition curve with a large enough effect; inconclusive = small, poorly fitted or top-dose-only effect; inactive = no such curve, though single readings can be large or run the other way;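 note: the protocol describes HADH2 (HSD17B10) and not the HSD17B4 of the title; nearly all actives have a fitted effect of over 70% in size; most hits overshoot -100% by far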
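Activity followed as NADH fluorescence increase (ex 360, em 450 nm) every 30 seconds for 4 min, using final 90 uM beta-hydroxybutyryl CoA and 1 mM NAD+. Recombinant His-tagged enzyme, 20 nM, pH 9.0 Tris buffer, 15 min compound preincubation.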
Active calls of the source: *; ? = inconclusive; [ ] = another dose, or the depositor's remark. % is set by controls: 0 for no effect and ±100 for the full control effect; potency is the fitted concentration of half-maximal effect. An excerpt, so the mix of outcomes need not match the whole.

structure	HSD17B inhib
COc1cccc(OC)c1C(=O)N1CCN(Cc2ccc3c(c2)OCO3)CC1	10%
CCOC(=O)Cn1c(C)nc2c(C(=O)OCC)sc(C)c2c1=O	?
N#CCCn1c(=O)c(-c2ccccc2)nc2cnc(N3CCNCC3)nc21	32µM*
Cc1nccn1CCc1n[nH]c(=S)n1Cc1ccccc1	-1%
CCN(CC)CCNC(=O)C(C(=O)c1ccccc1)n1ccccc1=O (stereo unspecified)	0%
Cc1cccc(NCc2ccccc2O)n1	4%
Cc1occc1-c1nnc(SCC(=O)NCC2CCCO2)n1C (stereo unspecified)	1%
O=C(OCc1cc2ccccc2[nH]c1=O)c1cccnc1	1%
O=C(Nc1ccc(O)cc1)C1CCCN1S(=O)(=O)c1ccc(F)cc1 (stereo unspecified)	-4%
CC1=C(C(N)=O)C(c2ccc(Cl)cc2Cl)n2ncnc2N1 (stereo unspecified)	14%
Cc1ccsc1C(=O)OCC(=O)c1cc(C)n(CC2CCCO2)c1C (stereo unspecified)	6%
CCc1ccc2c(COn3nnc4ccc(S(=O)(=O)N(C)C)cc43)cc(=O)oc2c1	?
CCN(CC)c1ccc(C(NC(C)=O)NC(C)=O)cc1	-4%
CCCCCn1c(CN(C)Cc2ccccc2)nc2c1c(=O)n(C)c(=O)n2C	-1%
CCOC(=O)N1CCC(NC2CCCCCCC2)CC1	4%
CCOC(=O)C1=C(C)Nc2ncnn2C1c1c[nH]c2ccccc12 (stereo unspecified)	3%
Cc1ccc(NC(=O)CC2SCCNC2=O)cc1Cl (stereo unspecified)	-1%
Cn1c(SCC(=O)NCc2cccs2)nnc1-c1cccs1	2%
CCOC(=O)C1CCN(C(=O)c2ccc(Cl)c(NC3=NC4CS(=O)(=O)CC4S3)c2)CC1 (stereo unspecified)	0%
CC(C)CNC(=O)CSc1nnc(CN2CCCCCC2=O)n1-c1ccccn1	5%
COc1ccc(OC)c(-c2csc(N(Cc3ccco3)C(=O)c3cccs3)n2)c1	-21%
Cc1ccc(CNC(=O)CCNS(=O)(=O)c2ccc3c(c2)c(=O)n(C)c(=O)n3C)cc1	5%
O=C(CSc1ncnc2nc[nH]c12)NCCc1ccccc1	-2%
Cc1cc(C(=O)NC(C)c2ccncc2)no1 (stereo unspecified)	3%
COC(=O)c1cc(OC)c(OC)cc1NC(=O)CCC1CCCC1	?
COc1ccc(N(CC(=O)NC2CCCC2)C(=O)CCC(=O)Nc2cc(C)on2)c(OC)c1	7%
O=C(CCc1nc2ccccc2[nH]1)N1CCN(C(=O)c2ccco2)CC1	-4%
CCOC(=O)CCN1C(=O)[C@H]2[C@H]3[C@H](O)[C@H](O)C/C(=N/NC(=O)OCc4ccccc4)[C@H]3CC[C@@H]2C1=O	2%[11.4 µM]
COC(=O)C(C)Sc1nc(-c2ccc(OC)cc2)nc2c1c(=O)n(C)c(=O)n2C (stereo unspecified)	?
Cn1nnnc1SCc1cccc(CSc2nnnn2C)n1	4%
COc1ccc(N2CCN(C(=O)CSc3nnc(Cn4nnc5ccccc54)n3C)CC2)cc1	1%
O=C(Nc1ccc(Cc2ccncc2)cc1)c1ccc(S(=O)(=O)N2CCOCC2)cc1	20%
CCn1c(C)nc2cc(-c3nnc(-c4c(-c5ccccc5)noc4C)o3)ccc21	25µM*
Cc1ccc(S(=O)(=O)N2c3ccccc3NC(=O)C2CC(=O)Nc2ccccc2)cc1 (stereo unspecified)	-1%
Cn1nc(C(C)(C)C)cc1C(=O)Nc1nc2c(s1)C(=O)CC(C)(C)C2	6%
O=C(Nc1ccccc1N1CCCC1)c1cccnc1	-15%
O=C(c1cnc2sccn2c1=O)N1CCc2ccccc2C1	6%
Cc1c(C(=O)O)oc2ccc(S(=O)(=O)N3CCCCC3C(=O)O)cc12 (stereo unspecified)	0%
NC(N)=NC(N)=Nc1c(F)c(F)c(F)c(F)c1F	-2%[11.4 µM]
Cc1ccc(N(C(=O)C2CCC(=O)N2)C2(C(=O)NC3CCCCC3)CCCCC2)cc1 (stereo unspecified)	18%
COC(=O)N1[C@H](C)C=C[C@]1(Cc1ccccc1)C(=O)NCc1ccccn1	-10%
CCOCc1nnc(NS(C)(=O)=O)s1	-28%
Clc1ccc(Cn2nnc(-c3ccc(N4CCOCC4)cc3)n2)cc1	0%
CCSC(C)CC1CC(=O)CC(=O)C1 (stereo unspecified)	1%
Cc1cccc(CS(=O)(=O)Cc2ccc(C(=O)O)o2)c1	1%
CC(Oc1ccccc1)C(=O)NC1CCN(Cc2ccccc2)CC1 (stereo unspecified)	5%
Cc1ccc2c(C(=O)CN3CCN(c4ccccc4)CC3)c(C)[nH]c2c1	10%
CCCCNC(=O)C(c1ccc(OCC(=O)OC)c(C(=O)OC)c1)N(CCC1=CCCCC1)C(=O)CCCCCN1C(=O)NC(c2ccc(-c3ccccc3)cc2)C(C(=O)OCc2ccccc2)=C1C (stereo unspecified)	7%
CCN(CC)c1nc(Nc2ccccc2)nc(Oc2ccc(=O)n(C)n2)n1	10%
COc1ccccc1N(C(=O)c1snc(C(N)=O)c1N)C(C(=O)NC1CCCC1)c1ccco1 (stereo unspecified)	32µM*

Structural class, the entries above with a Cl atom
structure	HSD17B inhib
CC1=C(C(N)=O)C(c2ccc(Cl)cc2Cl)n2ncnc2N1 (stereo unspecified)	14%
Cc1ccc(NC(=O)CC2SCCNC2=O)cc1Cl (stereo unspecified)	-1%
CCOC(=O)C1CCN(C(=O)c2ccc(Cl)c(NC3=NC4CS(=O)(=O)CC4S3)c2)CC1 (stereo unspecified)	0%
Clc1ccc(Cn2nnc(-c3ccc(N4CCOCC4)cc3)n2)cc1	0%

(more compounds)
structure	HSD17B inhib
C=C1Cn2c(nnc2-c2ccc(Cl)cc2)S1	-6%
CCOC(=O)CSc1nc2ccccc2c(=O)n1CC1COc2ccccc2O1 (stereo unspecified)	-6%
Cc1noc(C)c1S(=O)(=O)Nc1ccc(C(=O)N2CCN(c3ccc(Cl)cc3)CC2)cc1	1%
O=C(CN1CCN(S(=O)(=O)c2ccc(F)cc2)CC1)Nc1ccc2c(c1)OCCO2	4%
CCc1ccc(NC2=NCC(=O)N2c2ccc3c(c2)OCCO3)cc1	11%
O=C(Cc1ccccc1)NO	4%
CCn1nnc(-c2ccccc2NS(=O)(=O)c2ccc(C(=O)OC)cc2)n1	1%
CCOc1ccccc1C(=O)N1CCN=C1SC	13%
CC1CCc2nn(CC(=O)Nc3ccc(F)cc3F)cc2C1 (stereo unspecified)	1%
O=c1cc(-c2ccccc2)c2ccccc2[nH]1	-1%
CCOc1ccc(N2C(=O)CC(SC(=NC)Nc3cccc(F)c3)C2=O)cc1 (stereo unspecified)	8%
Cc1c(NC(=O)c2ccccc2N)cccc1C(=O)O	?
O=c1[nH]c2cc3c(cc2cc1C(c1nnnn1Cc1ccccc1)N1CCN2CCCC2C1)OCCO3 (stereo unspecified)	32µM*
O=C(O)c1ccc(NS(=O)(=O)Cc2ccccc2)cc1	11%[11.4 µM]
COc1ccc2nc(NC(=O)c3ccoc3C)sc2c1	32µM*
CCOc1cccc(-c2nnc(SCC(=O)Nc3cccc(OC)c3)n2N)c1	-16%
CN(C)c1ccc(C(c2nnnn2C2CCCCC2)N2CCN(C(=O)c3ccco3)CC2)cc1 (stereo unspecified)	9%
O=C(NCC1CCCO1)c1ccc2c(c1)C(=O)N(C1CCCCC1)C2=O (stereo unspecified)	16%
Nc1nc2c(nc(Br)n2[C@@H]2O[C@H]3COP(=O)(O)O[C@@H]3[C@H]2O)c(=O)[nH]1	1%
Oc1ccc2ccccc2c1CN1CCN(c2ccccc2F)CC1	?
CCCCOC(=O)C1=C(C)Nc2ncnn2C1c1cc(OC)c(OC)cc1OC (stereo unspecified)	6%
COc1ccc(CNC(=O)[C@H]2C[C@@H]2[C@H](NP(=O)(c2ccccc2)c2ccccc2)c2ccccc2)cc1OC	8%
O=C(c1cnn2c(C(F)(F)F)cc(-c3ccco3)nc12)N1CCCc2ccccc21	-1%
COCCNc1nc(=S)[nH]c2cc(OC)c(OC)cc12	-16%
Cc1nc2ccccc2n1-c1nc(-c2ccco2)cc(C(F)(F)F)n1	-9%

(more compounds)
smiles	HSD17B inhib
O=C1CC(N2CCN(c3ccccc3Cl)CC2)C(=O)N1c1ccccc1 (stereo unspecified)	-5%
COc1ccccc1CN1CCC2(CC1)CCN(C(C)=O)CC2	10%
NC(=O)CCn1nc(-c2ccccc2)c2ccccc2c1=O	10%
N#CCCN1CCN(CCC#N)CC1	3%
N#Cc1c(C(F)(F)F)cc(-c2ccccc2)nc1SCc1nc(N)nc(N2CCOCC2)n1	-9%
Cc1ccccc1OCCNC(=O)CNC(=O)c1ccccc1O	25µM*
c1ccc2c(CN3CCN(Cc4c[nH]c5ccccc45)CC3)c[nH]c2c1	-1%[11.4 µM]
COc1ccccc1Cn1c(=O)[nH]c2cccnc21	3%
O=C(NCc1ccc2c(c1)OCO2)C(c1ccco1)N(C(=O)c1csnn1)c1ccccc1 (stereo unspecified)	4%
Cc1ccc(-c2nc3cnccn3c2Nc2ccc3c(c2)OCCO3)o1	?
CC(=O)N1CCc2cc(S(=O)(=O)NC(C(=O)NCc3ccccc3)C(C)C)ccc21 (stereo unspecified)	2%
NC(=O)c1ccccc1	-5%
CCOC(=O)c1ccc(N2C(=O)C3ON(c4ccccc4)C(c4ccco4)C3C2=O)cc1 (stereo unspecified)	?
COc1ccccc1Cn1c(-c2ccco2)nc2nc3ccccc3nc21	-25%
O=C(Nc1ccccc1-c1ccccc1)c1ccco1	3%
CCN(CC)c1ccc(NC(=O)COc2ccc(C)cc2)cc1	-5%
CCCCn1c(SCC(=O)OCC)nnc1-c1ccoc1C	7%
COc1ccc(Nc2nc(-c3sc(N)nc3C)cs2)cc1	12%
COc1ccc(OC)c(NC(=O)CSc2nc(C)cs2)c1	5%
Cc1cc(C)cc(NC(=O)N2CCC(c3nc4ccccc4o3)CC2)c1	-3%
CCOc1cc(C2Nc3ccccc3C(=O)N2c2ccccc2)ccc1O (stereo unspecified)	32µM*
COc1ccccc1Oc1ccc(S(=O)(=O)NCc2ccccn2)cc1	-4%
Cc1cc(NC(=O)CCC(=O)N(c2ccccc2)C(C(=O)NC2CCCC2)c2ccncc2)no1 (stereo unspecified)	5%
Cn1c(SCC(=O)OC2CCCCC2)nnc1-c1ccc2c(c1)OCO2	1%
Cc1cccc(C)c1OCc1nnc2c3cnn(C)c3ncn12	9%
c1ccc2c(c1)CCN(Cc1nnnn1Cc1ccc3c(c1)OCO3)C2	-7%
COc1cccc(NC2SC(=O)N(c3ccccc3)C2=O)c1 (stereo unspecified)	3%
CCOc1ccccc1NC(=O)CSc1nnc(-c2ccccc2Cl)n1Cc1ccco1	-9%
O=C(Nc1ccc2c(c1)OCCO2)C1CCN(S(=O)(=O)c2ccc(Br)s2)CC1	4%
CCOC(=O)C1=C(C)NC(=O)CC1c1ccccc1 (stereo unspecified)	11%

Next section, overlapping the part above by five compounds.
smiles	HSD17B inhib
c1ccc2c(c1)CCN(Cc1nnnn1Cc1ccc3c(c1)OCO3)C2	-7%
COc1cccc(NC2SC(=O)N(c3ccccc3)C2=O)c1 (stereo unspecified)	3%
CCOc1ccccc1NC(=O)CSc1nnc(-c2ccccc2Cl)n1Cc1ccco1	-9%
O=C(Nc1ccc2c(c1)OCCO2)C1CCN(S(=O)(=O)c2ccc(Br)s2)CC1	4%
CCOC(=O)C1=C(C)NC(=O)CC1c1ccccc1 (stereo unspecified)	11%
CN(C(=O)COc1cccc(Br)c1)C1CCS(=O)(=O)C1 (stereo unspecified)	8%
Cc1ccc2nc(NC3=NCN(C4CCCCC4)CN3)nc(C)c2c1	5%
CCCCOc1ncnc2c1[nH]c1ccccc12	7.9µM*
CCOC(=O)C1CCN(S(=O)(=O)c2ccc3[nH]c(=O)oc3c2)CC1	8%
Cc1noc(C)c1S(=O)(=O)N1CCCC(C(=O)Nc2ccc(Cl)cn2)C1 (stereo unspecified)	-3%
CCN(CC)S(=O)(=O)c1ccc2[nH]c(=O)[nH]c2c1	3%
Cc1cccc(N2C(=O)CC(N(C(=O)c3ccco3)c3cccc(C)c3)C2=O)c1 (stereo unspecified)	-6%
O=C(O)c1c[nH]c2c(ccc3[nH]cc(C(=O)O)c(=O)c32)c1=O	?
CS(=O)(=O)Nc1ccc(C(=O)NCCSCc2ccco2)cc1	-12%
Cc1c(C)c2ccc(OC3CCCCC3=O)cc2oc1=O (stereo unspecified)	32µM*
O=C(c1ccncc1)N1CCC2(CC1)CN(c1ccccn1)C2	20µM*
COc1ncc2nc(-c3ccccc3)c(=O)n(Cc3cccs3)c2n1	?
Fc1cccc(F)c1C(Nc1nncs1)Nc1nncs1	6%[11.4 µM]
COC(=O)c1c(C)cc(OC(=O)c2c(C)cc(O)c(C=O)c2O)c(C)c1O	4%
Cn1c(=O)[nH]c(=O)c2[nH]c(N(Cc3ccccc3)Cc3ccccc3)nc21	-5%
NC(Cc1c[nH]c2ccccc12)C(=O)O (stereo unspecified)	2%
NC1=C(O)C(=O)[C@H](c2c[nH]c3ccc(OCc4ccccc4)cc23)O1	0%[11.4 µM]
COCCN(CCOC)c1nc(C)nc2c1nc(-c1ccccc1)n2CC1CCN(C)CC1	25µM*

Four entries already listed, arranged by molecular weight, descending.
smiles	HSD17B inhib
COCCN(CCOC)c1nc(C)nc2c1nc(-c1ccccc1)n2CC1CCN(C)CC1	25µM*
Cc1noc(C)c1S(=O)(=O)N1CCCC(C(=O)Nc2ccc(Cl)cn2)C1 (stereo unspecified)	-3%
Cc1cccc(N2C(=O)CC(N(C(=O)c3ccco3)c3cccc(C)c3)C2=O)c1 (stereo unspecified)	-6%
CCN(CC)S(=O)(=O)c1ccc2[nH]c(=O)[nH]c2c1	3%

Screens from PubChem.
